Assay outcomes (PubChem)
Rce1 inh – blocks yeast Ras-converting enzyme; Q03530; yeast membranes, quenched prenylated peptide cleavage fluorescence; calls only; 290,000 tested, 0.27% active; AID 2563;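 active = fall in fluorescence gain of 50% or more versus controls, with final raw signal at or below 3038400; inconclusive = same 50% fall but final raw signal above 3038400; inactive = fall in fluorescence gain under 50%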;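 note: plate controls were neutral control wells for no effect and wells lacking membranes for full effect; tested at 10 µM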
eIF4H inh – inhibitors of RNA binding by human eIF4H; eIF4H fluorescence polarization binding assay; inhibition, % at 35 µM; 290,000 tested, 0.94% active; AID 2012;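 active = 50% or more with normal probe brightness, or confirmed in later tests; inconclusive = above 50% with abnormal brightness, or retests that disagree; inactive = below 50% or failed in later tests; about a fifth of its hits are not listed in these tables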;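 note: calls also rest on retests at 20 µM and on dose response follow-up; 0% = protein and probe with vehicle and 100% = probe without protein; strong numbers were not always called active; many hits fall short of the cut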
Env fusion inh – blocks HIV Env-driven cell-cell fusion | HeLa-JRFL Env/CEM21 cell fusion, luciferase | inhibition, % at 12.3 µM | 360,000 tested, 1.1% active;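 active = mean replicate inhibition score of at least 50 and every replicate individually at or above 50; inconclusive = only one of the two criteria met; inactive = mean below 50 and not all replicates reaching 50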;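 note: 0% = plate neutral controls and 100% = maraviroc near 300 nM; one replicate is shown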
UUG fidelity – modulators of start codon recognition fidelity in yeast | S. cerevisiae UUG-firefly luciferase reporter, luminescence/redox ratio | activity score, % at 18.7 µM | 350,000 tested, 0.13% active | AID 602363;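 active = replicate mean at a twofold rise or more, about +100% in these data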;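 note: firefly luciferase made from a UUG start codon reports start codon fidelity; reporter light over untreated wells divided by growth signal over untreated wells; some hits fall short of that in this replicate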
PABP FP inh – blocks human PABP binding to poly(A) RNA; fluorescence polarization; 290,000 tested, 1% active; AID 2014; P11940; inhibition, % at 35 µM;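 active = 50% or more with normal probe brightness, or confirmed in later tests; inconclusive = above 50% with abnormal brightness, or retests that disagree; inactive = below 50% or failed in later tests; about a fifth of its hits are not listed in these tables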;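 note: calls also rest on retests at 20 µM and on dose response follow-up; controls were probe without protein and protein plus probe with vehicle; some compounds called inactive have numbers as strong as hits; many hits fall short of the cut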
Target sequence (P11940 whole entry, looked up): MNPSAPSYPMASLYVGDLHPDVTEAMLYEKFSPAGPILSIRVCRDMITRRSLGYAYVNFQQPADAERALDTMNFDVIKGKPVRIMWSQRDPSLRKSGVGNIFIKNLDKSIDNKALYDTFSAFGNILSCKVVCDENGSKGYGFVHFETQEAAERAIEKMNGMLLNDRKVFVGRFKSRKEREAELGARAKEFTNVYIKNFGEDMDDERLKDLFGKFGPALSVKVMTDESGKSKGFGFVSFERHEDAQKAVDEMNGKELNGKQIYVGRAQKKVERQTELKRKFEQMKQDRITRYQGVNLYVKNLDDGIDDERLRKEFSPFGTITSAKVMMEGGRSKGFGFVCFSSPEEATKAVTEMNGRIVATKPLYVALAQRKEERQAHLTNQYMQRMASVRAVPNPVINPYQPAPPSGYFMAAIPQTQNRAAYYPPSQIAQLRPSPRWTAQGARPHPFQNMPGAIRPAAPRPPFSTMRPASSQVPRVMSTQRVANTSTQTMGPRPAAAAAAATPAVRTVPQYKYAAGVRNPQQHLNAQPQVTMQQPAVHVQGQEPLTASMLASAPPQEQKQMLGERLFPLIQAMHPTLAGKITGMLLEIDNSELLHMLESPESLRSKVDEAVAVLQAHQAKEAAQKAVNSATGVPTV
CSC inhib – blocks cancer stem cells; cancer stem cell-like cells viability, luminescence; inhibition, % at 7.5 µM; 300,000 tested, 1.1% active; AID 2717;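 active = mean at 75% or more and at least half the replicates too; inconclusive = mean and replicates disagree; tested in HMLE shEcad cells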;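 note: 0% = median of negative and 100% = median of positive control wells; the first replicate is given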
MT1-MMP act inh – blocks activation of human MT1-MMP. P50281. HT1080 RFP-PRO-GFP cells, GFP/RFP ratio fluorescence, overnight; percent of plate control window, DMSO zero. GFP/RFP ratio change, % at 20 µM. 360,000 tested, 0.061% active. AID 651647;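 active = GFP/RFP ratio change of at least 30% with cell ATP level not reduced by more than half and red fluorescence within 50% of control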; note: strong numbers were not always called active
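Assay system: RFP-PRO-GFP reporter HT1080 cells; read-out basis: GFP/RFP fluorescence ratio; benchmarks: DMSO wells and RFP-L50D-GFP cells; doses: 20 µM single dose, 1% DMSO; schedule: overnight cell settling, then overnight compound exposure, 37 °C, 5% CO2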
eIF4H inh retest – second read-out of eIF4H inh, no call of its own (marks repeat the call); inhibition, %; compound at 20 µM; confirmation average;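 mean of two retest wells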
PABP FP inh retest – further read-out of PABP FP inh, marked with its call; inhibition, %; compound at 20 µM; confirmation repeats;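 mean of two retest wells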
MT1-MMP act inh RFP – further read-out of MT1-MMP act inh, marked with its call; RFP signal change, %; measured here: RFP expression control read;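 0 = vehicle wells; hits needed this value within 50% of zero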
Starred values were filed as active, the others as inactive; i = inactive; ? = inconclusive; / = not tested or not shown.

SMILES	Rce1 inh	eIF4H inh	Env fusion inh	UUG fidelity	PABP FP inh	CSC inhib	MT1-MMP act inh	MT1-MMP act inh RFP	others
O=C(NNC(=O)c1ccncc1)c1ccccc1	i	-9	6	-14	-1	-3	4	1
O=c1[nH]c(/C=C\c2cccc(O)c2)nc(O)c1[N+](=O)[O-]	i	5	-10	-2	19	-10	-1	2
CC(O)CNCCCOc1ccc(Cl)cc1C(C)(C)C (stereo unspecified)	i	3	0	/	-1	6	/	/
C=C1c2cc(C)ccc2NC(=O)N1c1ccc(C)cc1	i	4	/	6	-1	20	0	12
O=C(Nc1ccc(Cl)cc1)c1ccc(-n2cccn2)c([N+](=O)[O-])c1	i	-2	-14	-20	-1	1	7	-8
COCCCNC(=O)CCn1c(=O)c2ccccc2n(CC(=O)NCCc2ccc(OC)c(OC)c2)c1=O	i	-6	-4	-14	7	10	-1	2
CCN(CC)C(=O)C1CCCN(Cc2ccc(N(C)C)cc2)C1 (stereo unspecified)	i	5	-9	-25	13	-6	1	5
CCOc1ccc(NC(=S)N2CCN(c3ccc(N4CCOCC4)nn3)CC2)cc1	i	-1	14	-19	2	-2	-1	-2
CC(=O)c1c(C)n(-c2ccc(C)cc2)c2ccc(O)cc12	i	0	14	-10	85	-10	-3	-6	eIF4H inh retest=3;PABP FP inh retest=8
CC1CCc2nc(NC(=O)c3ccc(N4C(=O)CCC4=O)cc3)sc2C1 (stereo unspecified)	i	-12	16	-14	-10	2	5	-6
CCCCC1S/C(=N/N=C/c2ccco2)NC1=O (stereo unspecified)	i	9	-2	/	-10	-9	3	6
Cc1ccc(-c2nn(CC(=O)NC(C)c3ccccc3)c(=O)c3ccccc23)cc1 (stereo unspecified)	i	1	-145	-8	6	-10	0	-7
CC(=O)c1ccc(N2CCN(C(=O)Nc3ccc(Cl)cc3)CC2)cc1	/	2	5	/	4	7	5	-14
COCCNC(=O)C1CC(c2ccc([N+](=O)[O-])cc2)=NO1 (stereo unspecified)	i	-2	-3	-16	-5	-11	0	0
CN(CCc1ccccc1)C(=O)c1cccc(NC(=O)Cc2cccc(NC(=O)C3CCCN(C(=O)C4CCC4)C3)c2)c1 (stereo unspecified)	/	/	7	3	/	/	-3	-19
O=C(Nc1ccccc1)Nc1ccc(C(=O)N2CCOCC2)cc1	i	0	-57	/	-2	20	1	3
COC(=O)c1c(NC(=O)c2ccoc2C)sc2c1CCC2	i	8	-62	-6	5	2	-7	-4
Cc1cc(C)c(S(=O)(=O)NCC2CCC(C(=O)NCc3ccc4c(c3)OCO4)CC2)c(C)c1 (stereo unspecified)	i	?	/	-6	?	16	0	-11
CC(C)NC(=S)NNc1ncnc2sc3c(c12)CC(C)(C)OC3	i	/	-8	-16	/	-7	-5	0
COc1cccc(/C=C2\SC(=S)N(N3C(=O)CCCC3=O)C2=O)c1	i	-12	-6	-17	0	1	-3	1
Cc1c(C(=O)C(=O)NCc2cccs2)c2ccccc2n1C	i	3	7	/	0	-7	0	1
Cn1c(N)c(C(=O)CSc2nnc(N)s2)c(=O)n(C)c1=O	/	/	-12	-16	/	10	-5	3
Cc1ccc(C)n1-c1nnc(N2CCC(C(=O)NCCCN3CCN(C)CC3)CC2)s1	i	-3	-48	-23	-15	/	-2	7
O=C(CCNC(=O)c1ccc(Br)cc1)NCc1cccnc1	i	/	2	-13	/	/	7	0
CCCCOCCO	/	/	-6	-9	/	/	0	4
Next part
SMILES	Rce1 inh	eIF4H inh	Env fusion inh	UUG fidelity	PABP FP inh	CSC inhib	MT1-MMP act inh	MT1-MMP act inh RFP	others
S=C1SC2(CCCCCC2)NC2=C1CCCCC2	/	/	6	-29	/	/	-6	-26
Cc1ccc(/C=N/N2CCN(Cc3ccccc3)CC2)o1	i	4	-32	/	0	-6	3	4
CC(=O)c1ccc(N2CCN(C(=O)CCN3C(=S)NC(C)(C)CC3C)CC2)cc1 (stereo unspecified)	/	4	16	/	-7	0	-1	0
O=C(/C=C/c1ccccc1)Nc1ccc(CN2CCOCC2)cc1	i	-5	-7	/	16	17	1	-4
O=C(CN1CCCCC1)N/N=C/c1ccc(Cl)cc1Cl	i	-5	-4	-9	5	27	-3	-1
O=C(NCc1ccc2c(c1)OCO2)C1CCCN1C(=O)Nc1ccc(F)cc1 (stereo unspecified)	i	-5	-72	1	-2	-12	7	0
Cc1cccc(NC(=O)c2ccc([N+](=O)[O-])s2)c1C	i	-3	15	/	-5	49	2	-5
N#Cc1nc(Nc2cccc(Cl)c2)c2ncn(C3CCCC3)c2n1	/	/	-343	-5	/	7	28	-33
Cc1ccc(S(=O)(=O)NCC(=O)Nc2ccc(C(F)(F)F)cc2)cc1	i	4	-199	-12	-5	/	-1	4
O=c1ccc(N=Nc2ccccc2)ccc1O	i	25	21	-19	9	47	20	1
Cc1cc(C)cc(NC(=O)c2ccc([N+](=O)[O-])o2)c1	i	3	-4	/	-10	/	-3	-11
CCCn1c(=O)c(C(=O)NNS(=O)(=O)c2ccc(Cl)cc2)c(O)c2ccccc21	i	4	-1	-16	-1	86*	5	3
COc1ccc(S(=O)(=O)NCCc2c[nH]c3ccccc23)cc1OC	i	-4	21	-3	-2	/	0	0
Cc1cccc(C(=O)OCC(=O)N2CCCC2=O)c1[N+](=O)[O-]	i	/	-10	34	/	-6	3	2
CC(C)(C)c1ccc(C(=O)O/N=C(\N)c2ccccc2)cc1	i	2	-19	-58	-2	0	0	-6
COc1ccc(N=C2S/C(=C\c3ccc(Cl)c([N+](=O)[O-])c3)C(=O)N2CCN(C)C)cc1	i	1	0	9	-11	105*	-31	-42
COc1ccc(OC)c(NC(=O)CSc2nnc(C3CCCCC3)o2)c1	i	-10	27	/	-2	-11	-1	3
O=C(CSc1oc(-c2ccco2)nc1S(=O)(=O)c1ccccc1)NCC1CCCO1 (stereo unspecified)	i	3	/	11	4	-16	-1	5
COC(=O)c1sc(NC(=O)c2c(F)cccc2F)c(C#N)c1C	i	1	1	-23	-3	58	3	2
O=C(CC1S/C(=N/N=C/C=C/c2ccccc2)NC1=O)Nc1ccc(C(=O)O)cc1 (stereo unspecified)	i	-2	-13	/	0	2	/	/
CCOc1ccc(CN(CCO)CCO)cc1C(=O)OC	i	9	/	-15	9	-9	2	1
O=C(NCCC1=CCCCC1)C1CCCN(S(=O)(=O)c2cccnc2)C1 (stereo unspecified)	i	-3	6	-29	-6	6	-1	0
O=S1(=O)C[C@H]2NC(=S)N(c3ccccc3)[C@H]2C1	i	-10	-8	/	-6	-9	3	7
CC1CCCC(NC(=S)Nc2ccc(SC(F)F)cc2)C1C (stereo unspecified)	i	-2	/	/	1	?	1	-6
CC1=C(C(=O)N2CCOCC2)CC(CC(=O)NCc2cccs2)C(=O)N1Cc1ccc(F)cc1 (stereo unspecified)	/	/	-11	-10	/	/	-3	1

Grouped by structure: those above containing a furan ring, fused or not
SMILES	Rce1 inh	eIF4H inh	Env fusion inh	UUG fidelity	PABP FP inh	CSC inhib	MT1-MMP act inh	MT1-MMP act inh RFP	others
CCCCC1S/C(=N/N=C/c2ccco2)NC1=O (stereo unspecified)	i	9	-2	/	-10	-9	3	6
COC(=O)c1c(NC(=O)c2ccoc2C)sc2c1CCC2	i	8	-62	-6	5	2	-7	-4
Cc1ccc(/C=N/N2CCN(Cc3ccccc3)CC2)o1	i	4	-32	/	0	-6	3	4
Cc1cc(C)cc(NC(=O)c2ccc([N+](=O)[O-])o2)c1	i	3	-4	/	-10	/	-3	-11
O=C(CSc1oc(-c2ccco2)nc1S(=O)(=O)c1ccccc1)NCC1CCCO1 (stereo unspecified)	i	3	/	11	4	-16	-1	5

New compounds follow
SMILES	Rce1 inh	eIF4H inh	Env fusion inh	UUG fidelity	PABP FP inh	CSC inhib	MT1-MMP act inh	MT1-MMP act inh RFP	others
NC(=O)c1oc2ccccc2c1NC(=O)c1ccccc1	i	-5	/	-12	2	4	-2	0
Cc1ccc2nc(N3CCC(C(=O)O)CC3)nc(-c3ccccc3)c2c1	i	1	/	-11	19	-12	-7	1
COc1ccc(CN2C(=O)c3cccnc3C2=O)cc1S(=O)(=O)N(C)c1cccc(C)c1	i	4	0	-24	2	-31	1	3
COc1cc(/C=C2/C(=N)N3N=C(CC(=O)N4CCOCC4)SC3=NC2=O)ccc1OCc1ccccc1F	i	-2	/	5	-1	-18	-1	4
CCCOc1ccccc1N1C(=O)CC(N(O)c2ccccc2)C1=O (stereo unspecified)	/	1	7	/	2	0	-3	2
CCN(CCNC(=O)C1CCN(S(=O)(=O)c2c(C)noc2C)CC1)c1ccccc1	i	2	10	/	-16	1	0	-5
COc1cc(NC(=O)c2ccco2)ccc1NC(=O)c1ccccc1Cl	i	-3	/	-15	3	9	0	-4
CCOC(=O)N1CCC(NC(=O)c2cc3sccc3n2CC)CC1	i	-3	/	-10	5	-14	8	-2
O=C(Nc1cccc(NC(=O)c2ccco2)c1)c1ccc2c(c1)OCCO2	i	-14	-2	/	6	0	/	/
CCCN(CC1CC1)C(=S)NC(=O)c1ccccc1C	/	/	0	-17	/	/	2	9
Cc1csc(NC(=O)CSc2nnc(Cc3cccn3C)n2-c2ccc(F)cc2)n1	i	-6	-11	5	-10	-1	-3	3
O=C(NN1CCOCC1)c1cccc2ccccc12	i	-18	-25	-9	-10	0	3	5
CCCc1c(C(=O)NNc2ccccc2OC)cnn1-c1ccccc1	i	-6	-12	/	-5	5	1	-1
Cc1cc(SCCC(=O)O)nc2c(C)cccc12	i	10	-10	-10	6	-10	4	2
c1ccc(-c2nccc(-c3ccco3)n2)nc1	i	-1	-56	-24	-10	-4	-4	-1
CSC(=N/N=C(\N)c1cnccn1)SC	i	-5	9	-13	-3	-9	3	8
CC(C)(C)OC(=O)N1CCC(C(N)=O)CC1	i	-1	-20	-10	6	-12	3	4
COC(=O)C(C#N)c1nc2ccccc2nc1N1CCN(Cc2ccc3c(c2)OCO3)CC1 (stereo unspecified)	i	11	/	/	20	11	/	/
COc1ccc(NS(=O)(=O)c2cc(C(=O)N(C)CCc3ccccn3)ccc2Cl)cc1	/	/	-3	-7	/	/	-6	1
CC(=O)C1=C(O)C(=O)N(CCc2ccccc2)C1c1ccccc1[N+](=O)[O-] (stereo unspecified)	i	0	/	/	-4	11	-1	7
COC(=O)/C(=N/Nc1cccc(C)c1)N1CCCc2ccccc21	i	4	-3	/	-5	/	1	4
O=c1[nH][nH]c2cc([N+](=O)[O-])ccc12	/	/	4	-19	/	/	17	-20
O=C1CN(C(=O)c2cccc([N+](=O)[O-])c2)CC(=O)N1	i	1	-1	-7	5	-14	0	4
CCN1C(=O)/C(=c2\s/c(=C3\Sc4ccccc4N3C)c(=O)n2C)N(C)C1=S	i	-3	/	/	-7	-8	/	/
Cn1c(=O)c2c(ncn2CC(O)CNc2ccc(Cl)cc2)n(C)c1=O (stereo unspecified)	i	-7	1	6	12	-3	9	0
COc1ccc(C(=O)NCc2ccccn2)cc1	i	8	23	-12	-4	7	-4	2
O=C(Nc1ccc(-c2nnc3n2CCCCC3)cc1)c1cnccn1	i	5	/	-12	0	/	-5	2
COc1cc(NC(=O)COc2ccc(-n3ccnc3)cc2)cc(OC)c1	i	2	-5	/	-16	-2	-7	-21
O=C1Nc2ccc(Br)cc2/C1=N\N=C\C1=C(N2CCOCC2)C(=C/c2ccccc2)/CC1	/	/	11	-5	/	/	-7	4
COc1ccccc1-n1nnnc1SCC(=O)Nc1oc(C)c2c(C)n[nH]c(=O)c12	i	/	2	/	/	-4	-3	-5

Only part of the results is shown; count on the stated rates, not on these rows.
